Insulin prom inh – inhibitors of insulin promoter-driven GFP, primary screen, imaging, TRM-6 cells (human fetal islet line), eGFP reporter, cell count; 0.9% of 130,000 active; reporter expression induced with tamoxifen; inhibition, % at 2 µM; AID 1273, 2008;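 active = inhibition above the mean plus 3 SD, with well images judged a real hit on visual review, cut at about 60% in these data, passing the limit was not always enough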
GALR2 ag – GALR2 receptor agonists, primary screen, cell-based; activation, %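 (tested at 5 µM)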; GALR2-expressing cells, agonist activation read-out; 0.48% of 140,000 active; AID 803, 2007;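 active = above mean plus 3 SD of all compounds, about 5% in these data, not always enough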;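 note: 0% = vehicle buffer wells and 100% = reference agonist at full effect; tested in CHO reporter cells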
HSV augment – enhancers of HSV replication in host cells, fold increase, host cell viability; HSV replication augmentation in cells; maximum fold increase; 0.005% of 220,000 active;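 active = peak rise of 1.5-fold or more in the series; tested in PC3 cells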;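 note: first round at 10 µM; read as green reporter fluorescence; hits show the peak of a series up to 25 µM; 1 = signal of infected wells without compound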
RGS16-Gao – modulators of RGS16 binding to Galphao, primary screen, biochemical, human proteins, multiplexed bead flow cytometry. bead-based flow cytometry RGS16-Galphao binding, fluorescence; actives lie on both sides. binding response (% of control), % at 10 µM. Regulator of G-protein signaling 16 (Homo sapiens) + Guanine nucleotide-binding protein …. 0.38% of 220,000 active;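 active = below 25% or above 175%, edge rows of some plates excepted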;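 note: Galphao activated by GDP with aluminum fluoride before binding; 100% = wells without compound and 0% = beads without RGS; some results beyond the cut were filed as inactive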
PKD1 inh – inhibitors of human PKD1 kinase, biochemical, fluorescence polarization; PKD1 kinase fluorescence polarization assay; inhibition, %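 (about 10 µM by stock and volumes)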; 0.056% of 200,000 active;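 active = inhibition of 50% or more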;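 note: controls were vehicle for no effect and a reference inhibitor for full effect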
Target sequence (Q15139 whole entry, looked up): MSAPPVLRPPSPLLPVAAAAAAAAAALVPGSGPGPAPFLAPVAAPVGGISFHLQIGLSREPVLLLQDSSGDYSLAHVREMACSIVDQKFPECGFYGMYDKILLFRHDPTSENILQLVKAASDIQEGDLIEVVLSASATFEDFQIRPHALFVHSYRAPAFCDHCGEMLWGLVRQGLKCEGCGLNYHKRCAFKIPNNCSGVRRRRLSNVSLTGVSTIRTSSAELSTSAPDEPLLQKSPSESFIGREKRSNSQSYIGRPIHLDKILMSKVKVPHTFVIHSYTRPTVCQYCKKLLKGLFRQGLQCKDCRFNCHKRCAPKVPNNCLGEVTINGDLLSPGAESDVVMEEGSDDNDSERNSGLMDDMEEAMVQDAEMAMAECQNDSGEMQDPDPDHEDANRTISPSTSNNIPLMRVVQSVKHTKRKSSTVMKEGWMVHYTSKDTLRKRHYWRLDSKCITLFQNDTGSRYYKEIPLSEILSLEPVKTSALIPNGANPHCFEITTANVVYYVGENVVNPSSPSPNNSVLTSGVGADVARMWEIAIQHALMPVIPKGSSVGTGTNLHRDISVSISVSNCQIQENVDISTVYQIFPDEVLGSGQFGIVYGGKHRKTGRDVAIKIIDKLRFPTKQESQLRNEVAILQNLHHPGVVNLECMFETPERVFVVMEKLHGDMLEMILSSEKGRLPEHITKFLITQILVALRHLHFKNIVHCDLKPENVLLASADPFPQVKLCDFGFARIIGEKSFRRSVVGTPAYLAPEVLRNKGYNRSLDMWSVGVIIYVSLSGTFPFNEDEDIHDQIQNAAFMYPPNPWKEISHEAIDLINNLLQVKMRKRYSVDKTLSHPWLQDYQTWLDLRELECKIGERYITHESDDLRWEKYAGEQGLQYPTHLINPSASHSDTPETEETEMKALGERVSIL
Insulin prom inh cell count – also measured in Insulin prom inh; calls as there; normalized cell count, %; measured here: cell count, toxicity; reference of the scale not given here;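 cells exposed to compound for 48 h; stained nuclei by imaging scaled within each plate; lower means fewer cells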
HSV augment primary fold – further read-out of HSV augment, marked with its call; fold increase; compound at 10 µM; measured here: primary screen fold increase 10 uM; tested in PC3 cells;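 GFP signal in the first replicate; 1 = infected wells without compound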
Active calls of the source: *; [ ] = another dose, or the depositor's remark.

Sample of the layout:
What do the screens show for `CCNc1nc(-c2cc(C)n(Cc3ccco3)c2C)cs1`?
Insulin prom inh: 57.1; HSV augment: inactive; RGS16-Gao: 90.8; PKD1 inh: 7.1; Insulin prom inh cell count: 128.3; HSV augment primary fold: 1.25

Results for COc1cc(NC(=O)c2cccc([N+](=O)[O-])c2)ccc1NC(=O)c1ccco1 ?
HSV augment: inactive; RGS16-Gao: 95.8; PKD1 inh: -4.6; HSV augment primary fold: 0.93

What do the screens show for `O=C(Nc1ccc(N2CCN(C(=O)c3ccc(Cl)cc3)CC2)cc1)c1ccc([N+](=O)[O-])o1`?
HSV augment: inactive; RGS16-Gao: 98.8; PKD1 inh: 5.3; HSV augment primary fold: 0.61

What do the screens show for `COc1ccc(-c2[nH]c3ccccc3c2SCCNC(=O)c2cc3ccccc3oc2=O)cc1`?
Insulin prom inh: -95.2; GALR2 ag: -1.3; HSV augment: inactive; PKD1 inh: -7.9; Insulin prom inh cell count: 111.9; HSV augment primary fold: 0.82

How did Cc1ccc(C2/C(=C(/O)c3ccc(OC(C)C)cc3)C(=O)C(=O)N2CCN2CCOCC2)cc1 (stereo not given) do in these assays?
GALR2 ag: -1.9; HSV augment: inactive; RGS16-Gao: 193.2; PKD1 inh: 3.9; HSV augment primary fold: 0.83

What do the screens show for `O=C(Nc1nnc(-c2ccc3c(c2)CCCC3)o1)c1ccccc1`?
GALR2 ag: -2.4; HSV augment: inactive; RGS16-Gao: 91.2; PKD1 inh: 13.3; HSV augment primary fold: 0.78

The list itself, repeating the preview:
What do the screens show for `CCNc1nc(-c2cc(C)n(Cc3ccco3)c2C)cs1`?
Insulin prom inh: 57.1; HSV augment: inactive; RGS16-Gao: 90.8; PKD1 inh: 7.1; Insulin prom inh cell count: 128.3; HSV augment primary fold: 1.25

Results for COc1cc(NC(=O)c2cccc([N+](=O)[O-])c2)ccc1NC(=O)c1ccco1 ?
HSV augment: inactive; RGS16-Gao: 95.8; PKD1 inh: -4.6; HSV augment primary fold: 0.93

What do the screens show for `O=C(Nc1ccc(N2CCN(C(=O)c3ccc(Cl)cc3)CC2)cc1)c1ccc([N+](=O)[O-])o1`?
HSV augment: inactive; RGS16-Gao: 98.8; PKD1 inh: 5.3; HSV augment primary fold: 0.61

What do the screens show for `COc1ccc(-c2[nH]c3ccccc3c2SCCNC(=O)c2cc3ccccc3oc2=O)cc1`?
Insulin prom inh: -95.2; GALR2 ag: -1.3; HSV augment: inactive; PKD1 inh: -7.9; Insulin prom inh cell count: 111.9; HSV augment primary fold: 0.82

How did Cc1ccc(C2/C(=C(/O)c3ccc(OC(C)C)cc3)C(=O)C(=O)N2CCN2CCOCC2)cc1 (stereo not given) do in these assays?
GALR2 ag: -1.9; HSV augment: inactive; RGS16-Gao: 193.2; PKD1 inh: 3.9; HSV augment primary fold: 0.83

What do the screens show for `O=C(Nc1nnc(-c2ccc3c(c2)CCCC3)o1)c1ccccc1`?
GALR2 ag: -2.4; HSV augment: inactive; RGS16-Gao: 91.2; PKD1 inh: 13.3; HSV augment primary fold: 0.78

How did COc1cccc2sc(N(CCCN(C)C)C(=O)c3sc4ccccc4c3Cl)nc12 do in these assays?
GALR2 ag: 1.2; HSV augment: inactive; RGS16-Gao: 103.4; PKD1 inh: 0.6; HSV augment primary fold: 0.96

What do the screens show for `Cc1ccc(SCc2nc(-c3ccccn3)no2)cc1`?
Insulin prom inh: 11.1; GALR2 ag: 0.2; HSV augment: inactive; RGS16-Gao: 70.5; PKD1 inh: -4.9; Insulin prom inh cell count: 217.9; HSV augment primary fold: 0.92

How did CCN(CC)C(=O)CSc1nc(N)c2c3c(sc2n1)CC(C)CC3 (stereo not given) do in these assays?
Insulin prom inh: -7.1; GALR2 ag: 0.8; HSV augment: inactive; RGS16-Gao: 104.0; PKD1 inh: 0.4; Insulin prom inh cell count: 59.9; HSV augment primary fold: 0.8

What do the screens show for `O=C(NNc1ncccc1Cl)c1c(Cl)cccc1Cl`?
Insulin prom inh: 43.6; HSV augment: inactive; RGS16-Gao: 108.3; PKD1 inh: -8.1; Insulin prom inh cell count: 173.6; HSV augment primary fold: 0.93

Results for CCc1ccc(CN(C)C(=O)CCc2nnc(Cc3cccc(C)c3)o2)nc1 ?
HSV augment: inactive; RGS16-Gao: 11.3; PKD1 inh: -2.6; HSV augment primary fold: 1.05

What do the screens show for `COc1ccccc1NC1=C(Cl)C(=O)N(C2CCCCC2)C1=O`?
Insulin prom inh: -32.3; GALR2 ag: -2.9; RGS16-Gao: 104.1; PKD1 inh: -6.9; Insulin prom inh cell count: 86.4

What do the screens show for `CC(O)c1c(OCc2ccccc2)ncnc1OCc1ccccc1` (stereo not given)?
Insulin prom inh: 6.5; GALR2 ag: -0.4; HSV augment: inactive; RGS16-Gao: 103.0; PKD1 inh: -0.3; Insulin prom inh cell count: 114.4; HSV augment primary fold: 0.9

What do the screens show for `CCOc1ccc(N2CC(O)(c3cccs3)[N+]3=C2CCCC3)cc1` (stereo not given)?
HSV augment: inactive; RGS16-Gao: 91.3; PKD1 inh: -7.5; HSV augment primary fold: 0.94

What do the screens show for `Cc1ccc(OCC(=O)NCc2ccc3c(c2)OCO3)c([N+](=O)[O-])n1`?
Insulin prom inh: 20.0; HSV augment: inactive; RGS16-Gao: 116.4; PKD1 inh: -9.8; Insulin prom inh cell count: 95.4; HSV augment primary fold: 0.94

Results for O=C(NN=C1CCCCCC1)c1ccc(Br)o1 ?
Insulin prom inh: -2.0; GALR2 ag: -1.4; HSV augment: inactive; RGS16-Gao: 326.8*[activator]; PKD1 inh: -1.7; Insulin prom inh cell count: 90.1; HSV augment primary fold: 1.1

How did COc1ccc(C(=O)OCC(=O)NCC2CCCO2)cc1[N+](=O)[O-] (stereo not given) do in these assays?
HSV augment: inactive; RGS16-Gao: 103.3; PKD1 inh: -0.1; HSV augment primary fold: 1.01

What do the screens show for `COc1ccc(NC(=O)CSc2nnc(CNc3ccc(F)cc3)o2)c(OC)c1`?
Insulin prom inh: -3.2; GALR2 ag: -1.1; HSV augment: inactive; RGS16-Gao: 104.5; PKD1 inh: 3.1; Insulin prom inh cell count: 95.9; HSV augment primary fold: 0.93

What do the screens show for `COc1ccc(NC(=O)COC(=O)c2c(F)cccc2Cl)cc1OC`?
HSV augment: inactive; RGS16-Gao: 92.3; PKD1 inh: -6.4; HSV augment primary fold: 0.89

What do the screens show for `CN(C)/C(=N\S(=O)(=O)c1ccccc1)c1ccc([N+](=O)[O-])cc1`?
GALR2 ag: 0.4; HSV augment: inactive; RGS16-Gao: 97.4; PKD1 inh: 3.1; HSV augment primary fold: 0.93

How did COc1cc(C2C(C(C)=O)=C(C)Nc3ncnn32)ccc1O (stereo not given) do in these assays?
GALR2 ag: -2.2; HSV augment: inactive; RGS16-Gao: 108.0; PKD1 inh: -2.9; HSV augment primary fold: 0.93

What do the screens show for `Cc1c(C(=O)NCCCN2CCOCC2)sc2nc(-c3ccc(F)cc3)cn12`?
Insulin prom inh: 16.9; GALR2 ag: -0.3; HSV augment: inactive; RGS16-Gao: 110.9; PKD1 inh: -9.4; Insulin prom inh cell count: 122.7; HSV augment primary fold: 0.86

Results for O=C(NC(Cc1c[nH]c2ccccc12)C(=O)Nc1ccc(F)c([N+](=O)[O-])c1)c1cccs1 (stereo not given) ?
GALR2 ag: -0.5; HSV augment: inactive; RGS16-Gao: 98.7; PKD1 inh: 5.9; HSV augment primary fold: 0.78

What do the screens show for `CC1=Nn2c(nnc2-c2cc(-c3ccccc3)n[nH]2)SC1`?
Insulin prom inh: 20.0; GALR2 ag: -1.3; HSV augment: inactive; RGS16-Gao: 101.1; PKD1 inh: -0.1; Insulin prom inh cell count: 67.7; HSV augment primary fold: 0.85

Results for Cn1c(Cn2c(=O)sc3ccccc32)nnc1SCC(=O)NCc1ccco1 ?
GALR2 ag: -0.1; HSV augment: inactive; RGS16-Gao: 107.0; PKD1 inh: -7.7; HSV augment primary fold: 1.15

Results for O=[N+]([O-])c1ccc(Sc2ccccn2)nc1 ?
HSV augment: inactive; RGS16-Gao: 102.6; HSV augment primary fold: 0.91

Results for COc1cccc(CNc2ccc(N3CCCCC3)cc2)c1OC ?
Insulin prom inh: -46.1; GALR2 ag: -0.8; HSV augment: inactive; RGS16-Gao: 130.3; PKD1 inh: -7.2; Insulin prom inh cell count: 89.8; HSV augment primary fold: 0.96

Results for CC(C)(C)c1ccc(S(=O)(=O)N2CCN(c3ncccn3)CC2)cc1 ?
Insulin prom inh: -266.7; HSV augment: inactive; RGS16-Gao: 106.7; PKD1 inh: 0.9; Insulin prom inh cell count: 79.1; HSV augment primary fold: 0.96

How did COC(=O)N/N=C/c1cc(C)n(-c2cccc3ccccc23)c1C do in these assays?
Insulin prom inh: -8.3; GALR2 ag: 0.6; HSV augment: inactive; RGS16-Gao: 105.4; PKD1 inh: -0.1; Insulin prom inh cell count: 124.3; HSV augment primary fold: 0.96

How did Cc1sc(NC(=O)Nc2ccccc2)c(C(N)=O)c1C do in these assays?
HSV augment: inactive; RGS16-Gao: 81.6; PKD1 inh: 4.3; HSV augment primary fold: 0.92

What do the screens show for `CC(C)/C=C1\CC/C(=C\c2ccc(N(C)C)cc2)C1=O`?
Insulin prom inh: 0.0; GALR2 ag: -0.7; HSV augment: inactive; RGS16-Gao: 99.6; PKD1 inh: -5.9; Insulin prom inh cell count: 123.8; HSV augment primary fold: 1.1

How did O=C(CSc1nnc(-c2cccc(S(=O)(=O)N3CCCC3)c2)n1-c1ccccc1)Nc1cccc(C(=O)O)c1 do in these assays?
HSV augment: inactive; RGS16-Gao: 105.8; HSV augment primary fold: 0.98

Results for COc1cc(C(=O)N2CCN(c3cc(Cl)ccc3Cl)CC2)cc(OC)c1OC ?
GALR2 ag: 1.5; HSV augment: inactive; RGS16-Gao: 104.3; PKD1 inh: -7.2; HSV augment primary fold: 0.51

What do the screens show for `CCN(CC)S(=O)(=O)c1ccc(Br)c(OC)c1`?
Insulin prom inh: -48.4; GALR2 ag: -1.6; HSV augment: inactive; RGS16-Gao: 101.8; PKD1 inh: -5.2; Insulin prom inh cell count: 264.0; HSV augment primary fold: 0.95

Results for CCS(=O)(=O)Nc1cccc(C2=NN(S(C)(=O)=O)C(c3ccccc3)C2)c1 (stereo not given) ?
HSV augment: inactive; RGS16-Gao: 97.3; PKD1 inh: 3.2; HSV augment primary fold: 1.18

What do the screens show for `O=C(Oc1c(CN2CCOCC2)cc(Cl)c2cccnc12)c1ccc(F)cc1`?
Insulin prom inh: -5.0; GALR2 ag: -1.4; HSV augment: inactive; RGS16-Gao: 100.6; PKD1 inh: 4.6; Insulin prom inh cell count: 66.8; HSV augment primary fold: 0.74

How did COc1ccc(CCNC(=O)c2ccc3nc(-c4ccco4)c(-c4ccco4)nc3c2)cc1OC do in these assays?
GALR2 ag: -0.4; RGS16-Gao: 81.3; PKD1 inh: 13.0

Results for O=C(NCCCN1CCOCC1)c1ccc(Sc2ccc(F)cc2)c([N+](=O)[O-])c1 ?
Insulin prom inh: -12.5; GALR2 ag: -0.2; HSV augment: inactive; RGS16-Gao: 109.6; PKD1 inh: -2.9; Insulin prom inh cell count: 63.7; HSV augment primary fold: 0.66

How did CC(=O)OC1COC(N2CCc3cc(Br)c([N+](=O)[O-])cc32)C(OC(C)=O)C1OC(C)=O (stereo not given) do in these assays?
Insulin prom inh: -27.0; GALR2 ag: -2.4; HSV augment: inactive; RGS16-Gao: 103.5; PKD1 inh: -9.4; Insulin prom inh cell count: 62.9; HSV augment primary fold: 0.98

What do the screens show for `CCOC(=O)c1ccc(N2C(=O)CC(N3CCN(Cc4ccccc4)CC3)C2=O)cc1` (stereo not given)?
Insulin prom inh: -6.2; GALR2 ag: -0.9; HSV augment: inactive; RGS16-Gao: 106.5; PKD1 inh: -3.3; Insulin prom inh cell count: 105.0; HSV augment primary fold: 0.96

What do the screens show for `CC(O)CSc1nc2c(c(=O)n(C)c(=O)n2C)n1CCCc1ccccc1` (stereo not given)?
HSV augment: inactive; RGS16-Gao: 82.1; HSV augment primary fold: 0.89

How did O=C(NCCCN1CCC(Cc2ccccc2)CC1)C1CCC(=O)N1C1CCCC1 (stereo not given) do in these assays?
GALR2 ag: -1.8; HSV augment: inactive; RGS16-Gao: 101.5; PKD1 inh: 11.0; HSV augment primary fold: 1.01

What do the screens show for `COc1cccc(N/C(SCc2ccccc2Cl)=C(/C#N)C(=O)NCc2cccs2)c1`?
GALR2 ag: -0.3; HSV augment: inactive; RGS16-Gao: 101.3; PKD1 inh: -8.9; HSV augment primary fold: 0.99

What do the screens show for `Oc1ccc(Cl)cc1Cc1cc(Cl)ccc1O`?
Insulin prom inh: -9.1; GALR2 ag: -1.9; HSV augment: inactive; RGS16-Gao: 99.8; PKD1 inh: -8.2; Insulin prom inh cell count: 135.9; HSV augment primary fold: 0.86
